LASV entry inh = inhibitors of Lassa virus binding or cell entry; Lassa virus pseudotype entry inhibition, cell reporter; control for the full effect not named in the record; Potency, µM (series often up to 37.9 µM), for the others: at the highest dose activity change, negative = inhibition, actives largely listed as inhibitors; actives 1.2% (n = 300,000); active means well fitted inhibition curve with a large enough effect; inconclusive means small, poorly fitted or top-dose-only effect, or effect the other way; inactive means flat fitted curve, though single readings scatter; tested in HEK293 cells; further: on the % scale 0 is the no-effect control and ±100 the full control effect; nearly all actives have a fitted effect of over 50% in size; luciferase read-out
Cruzain inh Det = blocks cruzain activity in presence of Triton detergent; AID 1478; Potency, µM, for inactives: max response, negative = inhibition, most hits filed as inhibitors; purified cruzain, Z-FR-AMC fluorescence, 0.01% Triton; actives 0.43% (n = 200,000); P25779;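 further: plate controls were neutral wells for no effect and buffer without enzyme for full effect; nearly all actives have a fitted effect of over 40% in size; top concentration of the series not given in the record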
Target sequence (P25779 123-467 limits assumed): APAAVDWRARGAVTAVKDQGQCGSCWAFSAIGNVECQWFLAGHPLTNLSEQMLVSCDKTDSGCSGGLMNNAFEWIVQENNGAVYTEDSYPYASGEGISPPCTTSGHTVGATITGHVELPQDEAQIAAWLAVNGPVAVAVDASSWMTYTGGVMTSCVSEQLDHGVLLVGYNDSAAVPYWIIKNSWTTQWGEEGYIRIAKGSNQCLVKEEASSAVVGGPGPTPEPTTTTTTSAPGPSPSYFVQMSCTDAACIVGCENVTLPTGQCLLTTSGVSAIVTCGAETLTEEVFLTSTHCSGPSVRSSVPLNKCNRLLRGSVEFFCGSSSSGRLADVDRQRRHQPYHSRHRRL
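15 min RT preincubation of 1.5 nM cruzain with compound, then 2 uM Z-FR-AMC added; kinetic AMC fluorescence, 60 s delta. Triton X-100 0.01%, pH 5.5.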
NS1 inh = blocks influenza NS1 protein function; S. cerevisiae slowed by influenza A NS1, growth recovery by OD600; AID 2326; actives 0.4% (n = 270,000); Potency, µM (top dose mostly 46.1 µM), inactives show at the top dose activity, positive = more growth; active means well fitted rising curve with a large enough effect; inconclusive means small, poorly fitted or top-dose-only effect; inactive means no such curve, though single readings can be large or run the other way; further: nearly all actives have a fitted effect of over 50% in size
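Recovery from NS1-induced slow growth read by OD600 in budding yeast switched to galactose assay medium (pH 6.0, -URA) at 1:100 dilution. Compound 23 nl per well; the matching strain lacking NS1 serves as control.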
Marburg entry inh = Marburg virus entry inhibition | Marburg virus pseudotyped entry inhibition, cell reporter; control for the full effect not named in the record; about a third of the inactives were read at about 46 µM | Potency, µM (doses to about 37.8 µM), without a hit: top-dose activity change, negative = inhibition, most hits filed as inhibitors | actives 1.8% (n = 300,000) | AID 540276; active = well fitted inhibition curve with a large enough effect; inconclusive = small, poorly fitted or top-dose-only effect, or effect the other way; inactive = flat fitted curve, though single readings scatter; tested in HEK293 cells; about a fifth of its hits are not listed in these tables; further: on the % scale 0 is the no-effect control and ±100 the full control effect; luciferase read-out
RE007 growth inh = less growth of the S. pombe RE007 Vpr strain | S. pombe RE007 Vpr strain, BacTiter-Glo ATP luminescence, 24 h; control for the full effect not named in the record | Potency, µM (titrated, usually from 92.2 µM), for inactives: at the top dose activity change, negative = less growth | actives 0.21% (n = 360,000) | AID 651644; active = well fitted falling curve with a large enough effect; inconclusive = small, poorly fitted or top-dose-only effect; inactive = no such curve, though single readings can be large or run the other way;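 further: on the % scale 0 is the no-effect control and ±100 the full control effect; nearly all actives have a fitted effect of over 50% in size; the assay follows cell death caused by Vpr and the record does not say whether a fall means rescue or toxicity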
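Fission yeast RE007 carrying one integrated HIV-1 vpr copy, seeded at OD 0.01 in PMG+AL medium with 23 nL pinned compound. Grown 24 h at 30 degrees; viability read by BacTiter-Glo luminescence after 5 min.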
2A StopGo = FMDV 2A StopGo reporter, luciferase signal. Potency, µM (series often up to 57.9 µM), for the others: top-dose signal change, negative = less light. human cells with a luciferase reporter of 2A StopGo recoding; control for the full effect not named in the record. actives 1.2% (n = 410,000); active = well fitted falling curve with a large enough effect; inconclusive = small, poorly fitted or top-dose-only effect; inactive = no such curve, though single readings can be large or run the other way; tested in HEK293T cells; further: on the % scale 0 is the no-effect control and ±100 the full control effect; nearly all actives have a fitted effect of over 45% in size; luciferase light after 4 h
SARS PLP yeast = inhibitors of SARS-CoV papain-like protease in yeast; S. cerevisiae expressing SARS-CoV PLpro, growth rescue; control for the full effect not named in the record; Potency, µM (series often up to 32.9 µM), for the others: at the top dose activity, positive = growth rescue; actives 0.19% (n = 330,000); AID 485353; active means well fitted rising curve with a large enough effect; inconclusive means small, poorly fitted or top-dose-only effect; inactive means no such curve, though single readings can be large or run the other way; further: 0% is about no effect; nearly all actives have a fitted effect of over 55% in size; growth read by luminescence after 48 h
Cruzain noTriton = inhibitors of Trypanosoma cruzi cruzain without detergent; purified cruzain, Z-FR-AMC fluorescence, no detergent; actives 2.3% (n = 200,000); P25779; Potency, µM, without a hit: max response, negative = inhibition, actives largely listed as inhibitors;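 further: plate controls were enzyme without inhibitor for no effect and buffer without enzyme for full effect; nearly all actives have a fitted effect of over 40% in size; top concentration of the series not given in the record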
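Purified cruzain at 1.5 nM, pre-incubated 15 min with compound at room temperature in 100 mM sodium acetate pH 5.5, 5 mM DTT, 0.00005% Triton X-100. Reaction started with 2 uM Z-FR-AMC; AMC fluorescence increase over 60 s gives rate.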
* hit, by the source's call; & = joins results of further samples; [ ] = another dose, or the depositor's remark. Unless noted, the call rests on the fitted dose curve; in most records, active means well fitted curve in the direction sought with a large enough effect; inconclusive means small, poorly fitted or top-dose-only effect, or another doubt; inactive means no such curve, though single readings can be large; an effect the other way counts as inactive or inconclusive. Potency means the concentration at half of the fitted maximal effect.

For COC(=O)c1cc(OC)c(OC)cc1NC(=O)c1ccoc1C the results were Cruzain inh Det -2.4%, NS1 inh 11%, Marburg entry inh 6%, SARS PLP yeast 4% and Cruzain noTriton inconclusive.
Screening CCOC(=O)c1ccc(N2C(=O)c3n[nH]c(-c4cccs4)c3C2c2ccc(C)cc2)cc1 (stereo not drawn) returned LASV entry inh 0%[46.1 µM], Cruzain inh Det -1.9%, Marburg entry inh -3%[46.1 µM], 2A StopGo -20% and Cruzain noTriton -8%.
`COc1ccc(C(=O)NCC(C)(C)SCc2c(C)cc(C)cc2C)cc1` gave LASV entry inh -5%, Cruzain inh Det -0.7%, NS1 inh -3%, Marburg entry inh inconclusive, RE007 growth inh 15%, SARS PLP yeast -9% and Cruzain noTriton 14%.
For CN(C)c1cccc(C(=O)N2CCCC(CCC(=O)N3CCN(c4ccccn4)CC3)C2)c1 (stereo not drawn) the results were LASV entry inh 1%, NS1 inh -2%, Marburg entry inh -16%, RE007 growth inh -10%, 2A StopGo -8% and SARS PLP yeast -2%.
`COc1ccc(-c2c3c(=O)n(C)c(=O)n(C)c3c3n2-c2ccccc2NC3c2ccccc2OC)cc1` (stereo not drawn) gave LASV entry inh -18%[46.1 µM], Cruzain inh Det -3.1%, Marburg entry inh -24%[46.1 µM], 2A StopGo inconclusive and Cruzain noTriton 3%.
`CC1CCN(CCc2nc3cc(NS(=O)(=O)c4ccc(F)cc4)ccc3n2C)CC1` gave LASV entry inh 20%, Cruzain inh Det 4.1%, NS1 inh -4%, Marburg entry inh 15%&15%, RE007 growth inh -8%, 2A StopGo 6%, SARS PLP yeast 3% and Cruzain noTriton -3%.
Nc1ccc(-n2cnc3cc([N+](=O)[O-])ccc32)cc1 was read as LASV entry inh 1%, Cruzain inh Det -1.3%, NS1 inh -1%, Marburg entry inh 19%, RE007 growth inh -13%, 2A StopGo 37%[activator], SARS PLP yeast 2% and Cruzain noTriton -4%.
COc1cc(/C=C/C(=O)OCC(=O)NC(=O)NC(C)C)cc(S(=O)(=O)N2CCc3ccccc32)c1OC was read as LASV entry inh inconclusive, NS1 inh -42%, Marburg entry inh inconclusive, RE007 growth inh -7%, 2A StopGo inconclusive and SARS PLP yeast -3%.
Screening Cn1nccc1C(=O)NC1CCCc2c1cnn2-c1ccc(F)cc1F (stereo not drawn) returned LASV entry inh inconclusive, NS1 inh -5%, Marburg entry inh inconclusive, RE007 growth inh 13%, 2A StopGo -20% and SARS PLP yeast -9%.
For Cc1cc(C(=O)CSc2nnc(-c3ccccc3)n2C)c(C)n1C the results were LASV entry inh -14%, Cruzain inh Det 8.9%, NS1 inh inconclusive, Marburg entry inh 15%, RE007 growth inh 8%, 2A StopGo -19%, SARS PLP yeast 5% and Cruzain noTriton -4%.
Screening Cc1cc(Br)c(NC(=O)COC(=O)CC2CC3CCC2C3)c(Br)c1 (stereo not drawn) returned LASV entry inh 22%[46.1 µM], Marburg entry inh 13%[46.1 µM], RE007 growth inh 63%, 2A StopGo -10% and SARS PLP yeast -7%.
Screening CSc1ccc(CNc2ccccc2)cc1 returned Cruzain inh Det -0.1%, NS1 inh -6%, Marburg entry inh -6%, SARS PLP yeast 1% and Cruzain noTriton -16%.
CC(C)Oc1ccc(CNC(=O)Cc2ccc(NC(=O)N3CCSc4ncccc43)cc2)cc1 was read as LASV entry inh -11%[46.1 µM], Cruzain inh Det -9.6%, 2A StopGo -19% and Cruzain noTriton 18%.
For CCOc1ccc(C(=O)NC(=S)Nc2cccnc2)cc1[N+](=O)[O-] the results were LASV entry inh 20%, Marburg entry inh inconclusive, RE007 growth inh 3%, 2A StopGo 32%[activator] and SARS PLP yeast 1%.
Screening Cc1nc(N2CCN(c3ccccc3)CC2)c2c3c(sc2n1)CCC3 returned Cruzain inh Det -1.0%, NS1 inh -67%, Marburg entry inh 1%, SARS PLP yeast -48% and Cruzain noTriton 4%.
Screening NC(CC(=O)O)c1ccc(F)cc1 (stereo not drawn) returned LASV entry inh 11%, Cruzain inh Det 4.2%, NS1 inh 9%, Marburg entry inh -5%, RE007 growth inh 16%, 2A StopGo -16%, SARS PLP yeast -7% and Cruzain noTriton -18%.
Screening CN(c1ccccc1)S(=O)(=O)c1ccc(C(=O)NCCc2ccccc2)cc1 returned LASV entry inh inconclusive, NS1 inh 4%, Marburg entry inh 1%[46.1 µM], RE007 growth inh 11%, 2A StopGo 6% and SARS PLP yeast -5%.
For COC1CCC2(C)C(=CCC3C4CC(O)CC4(C)CCC32)C1 (stereo not drawn) the results were LASV entry inh 3%, Marburg entry inh -8%, RE007 growth inh -9% and 2A StopGo inconclusive.
For COc1ccc(Cn2cc(F)c(=O)n(C)c2=O)cc1[N+](=O)[O-] the results were LASV entry inh 2%, NS1 inh 2%, Marburg entry inh inconclusive, RE007 growth inh 3%, 2A StopGo -11% and SARS PLP yeast 0%.
`Cc1cc(C)c2c(n1)nn1c(NCCN3CCOCC3)cc(C)nc21` gave LASV entry inh inconclusive, Cruzain inh Det -20%, NS1 inh 1%, Marburg entry inh 3%, RE007 growth inh 7%[3.69 µM], 2A StopGo 3%, SARS PLP yeast -4% and Cruzain noTriton -8%.
For Cc1cc(Nc2cnc3ccccc3n2)n(-c2ccccc2)n1 the results were LASV entry inh -24%, Cruzain inh Det -9.2%, NS1 inh -7%, Marburg entry inh inconclusive, RE007 growth inh -11%, 2A StopGo inconclusive, SARS PLP yeast -1% and Cruzain noTriton -2%.
`CCN1CCc2c(sc(NC(=O)c3ccc(S(=O)(=O)N(C)CC4CCCO4)cc3)c2C(N)=O)C1` (stereo not drawn) gave LASV entry inh 1%, NS1 inh -6%, Marburg entry inh -1%, RE007 growth inh -11%, 2A StopGo -16% and SARS PLP yeast 5%.
For COc1ccc(N2CCN(C(=O)c3cn(C4CCCC4)c(=O)c4c3c3ccccc3n4C)CC2)cc1 the results were LASV entry inh inconclusive, Cruzain inh Det -5.4%, NS1 inh 10%, Marburg entry inh 8.9µM*, RE007 growth inh -5%, 2A StopGo 16%, SARS PLP yeast 0% and Cruzain noTriton -3%.
`O=c1cc(O)c2sc3nc(-c4cccnc4)cc(C(F)(F)F)c3c2[nH]1` gave LASV entry inh -3%, Cruzain inh Det -25%, NS1 inh 10µM*, Marburg entry inh 9%, RE007 growth inh -16%, 2A StopGo -4%, SARS PLP yeast 14% and Cruzain noTriton 12%.
Cn1c2ccc(F)cc2c2nnc(SCCN3CCOCC3)nc21 was read as NS1 inh -1%, RE007 growth inh -14%, 2A StopGo 3% and SARS PLP yeast 0%.
For CC(=O)N1c2ccc(S(=O)(=O)N3CCCC3C(=O)NCc3ccc(Cl)cc3)cc2CC1C (stereo not drawn) the results were NS1 inh -29%, RE007 growth inh -3%, 2A StopGo -21% and SARS PLP yeast 1%.
For COc1ccc(C)cc1NC(=O)c1ccc2c(c1)OCO2 the results were LASV entry inh 1%, Cruzain inh Det 2.1%, NS1 inh -84%, Marburg entry inh 9%, RE007 growth inh -22%, 2A StopGo 24%, SARS PLP yeast -6% and Cruzain noTriton -4%.
For Cc1noc(C)c1S(=O)(=O)N1CCCC1C(=O)O (stereo not drawn) the results were LASV entry inh 1%, NS1 inh -1%, Marburg entry inh 10%[46.1 µM], RE007 growth inh 11%, 2A StopGo -4% and SARS PLP yeast 1%.
Screening O=C(c1ccc(COc2ccccc2Br)cc1)N1CCCCC1 returned LASV entry inh -5%, Cruzain inh Det -3.8%, NS1 inh -81%, Marburg entry inh 18%, RE007 growth inh -6%, 2A StopGo -17%, SARS PLP yeast -20% and Cruzain noTriton 18%.
Screening COc1ccc(C2(C(N)=O)CCCCC2)cc1OC returned LASV entry inh -6%, Cruzain inh Det 7.5%, NS1 inh inconclusive, Marburg entry inh 21%, RE007 growth inh -18%, 2A StopGo -13%, SARS PLP yeast 6% and Cruzain noTriton -1%.
`COc1ccc(C(=O)NC2(C(F)(F)F)NC(=O)N(CCCc3ccccc3)C2=O)c(OC)c1OC` (stereo not drawn) gave LASV entry inh -27%, Cruzain inh Det -5.1%, NS1 inh 2%, Marburg entry inh inconclusive, RE007 growth inh 5%, 2A StopGo -16%, SARS PLP yeast -45% and Cruzain noTriton inconclusive.
`O=C(Nc1cccc(Cl)c1)c1ccc2ncsc2c1` gave NS1 inh -84%, RE007 growth inh -19%, 2A StopGo 31%[activator] and SARS PLP yeast -5%.
`O=S(=O)(NCc1cn2ccsc2n1)c1ccc2c(c1)OCCO2` gave LASV entry inh -1%, Cruzain inh Det 4.0%, NS1 inh 5%, Marburg entry inh 0%, RE007 growth inh 3%, 2A StopGo -24%, SARS PLP yeast 5% and Cruzain noTriton -10%.
O=S(=O)(Cc1cnc(Cl)s1)c1ccccc1 was read as LASV entry inh -5%, Cruzain inh Det 3.4%, NS1 inh 1%, Marburg entry inh -12%, RE007 growth inh 2%, 2A StopGo -1%, SARS PLP yeast 13µM* and Cruzain noTriton 2%.
N#Cc1ccc(OCC(=O)N/N=C2\CCc3ccccc32)cc1 was read as LASV entry inh -7%, Cruzain inh Det -0.4%, NS1 inh -2%, Marburg entry inh 9%, RE007 growth inh 5%, 2A StopGo 15%, SARS PLP yeast -14% and Cruzain noTriton -6%.
Screening Cc1csc(SCC(=O)N2CCN(S(=O)(=O)c3ccccc3)CC2)n1 returned LASV entry inh 13%, Cruzain inh Det 4.3%, NS1 inh -2%, Marburg entry inh 15%, RE007 growth inh 1%, 2A StopGo -21%, SARS PLP yeast 7% and Cruzain noTriton 0%.
`O=C(c1cc(=O)[nH]c2ccccc12)N(Cc1nnc(-c2ccccc2Cl)o1)C1CC1` gave LASV entry inh -17%, Marburg entry inh 5%[46.1 µM], RE007 growth inh -16%, 2A StopGo -15% and SARS PLP yeast -4%.
For NS(=O)(=O)c1ccc(NC(=S)Nc2ccc(S(=O)(=O)N3CCCC3)cc2)cc1 the results were LASV entry inh -9%[46.1 µM], Marburg entry inh 1%[46.1 µM], RE007 growth inh 36%, 2A StopGo 36%[activator] and SARS PLP yeast 3%.

Bioassay records (PubChem BioAssay)
